# SARS PLP yeast: inhibitors of SARS-CoV papain-like protease in yeast. S. cerevisiae expressing SARS-CoV PLpro, growth rescue; control for the full effect not named in the record. AID 485353. 330,000 compounds, 0.19% hits. Potency, µM (doses to about 32.9 µM), for the others: at the highest dose activity, positive = growth rescue; also: 0% is about no effect; nearly all actives have a fitted effect of over 55% in size; growth read by luminescence after 48 h
# RE007 growth inh: less growth of the S. pombe RE007 Vpr strain | 360,000 compounds, 0.21% hits | Potency, µM (top dose mostly 92.2 µM), without a hit: at the top dose activity change, negative = less growth | S. pombe RE007 Vpr strain, BacTiter-Glo ATP luminescence, 24 h; control for the full effect not named in the record; active = well fitted falling curve with a large enough effect; inconclusive = small, poorly fitted or top-dose-only effect; inactive = no such curve, though single readings can be large or run the other way;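 also: % is scaled to controls: 0 for no effect and ±100 for the full control effect; nearly all actives have a fitted effect of over 50% in size; the assay follows cell death caused by Vpr and the record does not say whether a fall means rescue or toxicity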
#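 Fission yeast strain RE007, carrying one chromosomally integrated HIV-1 vpr copy, was seeded at OD 0.01 in PMG+AL medium with 23 nL pinned compound. After 24 h at 30 °C and 99% humidity, viability was read by BacTiter-Glo luminescence.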
# Lassa entry inh: blocks Lassa virus binding to or entry into cells. 300,000 compounds, 1.2% hits. Lassa virus pseudotype entry inhibition, cell reporter; control for the full effect not named in the record. Potency, µM (doses to about 37.9 µM), for the others: at the highest dose activity change, negative = inhibition, most hits filed as inhibitors; active means well fitted inhibition curve with a large enough effect; inconclusive means small, poorly fitted or top-dose-only effect, or effect the other way; inactive means flat fitted curve, though single readings scatter; tested in HEK293 cells; also: % is scaled to controls: 0 for no effect and ±100 for the full control effect; nearly all actives have a fitted effect of over 50% in size; luciferase read-out
# 2A StopGo: lowers the luciferase signal of an FMDV 2A StopGo reporter | 410,000 compounds, 1.2% hits | human cells with a luciferase reporter of 2A StopGo recoding; control for the full effect not named in the record | Potency, µM (top dose mostly 57.9 µM), for the others: at the highest dose signal change, negative = less light | AID 1159524; active = well fitted falling curve with a large enough effect; inconclusive = small, poorly fitted or top-dose-only effect; inactive = no such curve, though single readings can be large or run the other way; tested in HEK293T cells; also: % is scaled to controls: 0 for no effect and ±100 for the full control effect; nearly all actives have a fitted effect of over 45% in size; luciferase light after 4 h
# Cruzain Triton: cruzain (T. cruzi) inhibition with detergent; P25779; purified cruzain, Z-FR-AMC fluorescence, 0.01% Triton; Potency, µM, without a hit: max response, negative = inhibition, actives largely listed as inhibitors; 200,000 compounds, 0.43% hits; active = well fitted curve in the direction sought with a large enough effect; inconclusive = small, poorly fitted or top-dose-only effect, or another doubt; inactive = no such curve, though single readings can be large; an effect the other way counts as inactive or inconclusive;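 also: plate controls were neutral wells for no effect and buffer without enzyme for full effect; nearly all actives have a fitted effect of over 40% in size; top concentration of the series not given in the record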
# Target sequence (P25779 123-467 limits assumed): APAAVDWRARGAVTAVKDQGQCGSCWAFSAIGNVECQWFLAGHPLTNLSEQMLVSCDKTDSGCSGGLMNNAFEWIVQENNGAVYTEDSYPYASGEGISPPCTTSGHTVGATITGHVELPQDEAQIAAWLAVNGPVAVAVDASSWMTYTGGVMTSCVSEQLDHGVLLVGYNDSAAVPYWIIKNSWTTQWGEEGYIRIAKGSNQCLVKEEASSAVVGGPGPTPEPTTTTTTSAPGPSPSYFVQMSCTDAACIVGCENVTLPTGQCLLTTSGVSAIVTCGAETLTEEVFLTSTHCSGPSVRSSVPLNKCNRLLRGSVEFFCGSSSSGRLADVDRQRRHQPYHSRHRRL
#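 Compounds were screened in titration against cruzain (1.5 nM) with 0.01% Triton X-100 to counter colloidal aggregation. Activity was the AMC fluorescence increase over 60 s after adding 2 uM Z-FR-AMC at pH 5.5.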
# Cruzain inh noDet: blocks cruzain activity in detergent-free assay; P25779; purified cruzain, Z-FR-AMC fluorescence, no detergent; Potency, µM, for inactives: max response, negative = inhibition, usual class: inhibitors; 200,000 compounds, 2.3% hits; AID 1476; active = well fitted curve in the direction sought with a large enough effect; inconclusive = small, poorly fitted or top-dose-only effect, or another doubt; inactive = no such curve, though single readings can be large; an effect the other way counts as inactive or inconclusive;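 also: plate controls were enzyme without inhibitor for no effect and buffer without enzyme for full effect; nearly all actives have a fitted effect of over 40% in size; top concentration of the series not given in the record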
#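 Purified cruzain at 1.5 nM, pre-incubated 15 min with compound at room temperature in 100 mM sodium acetate pH 5.5, 5 mM DTT, 0.00005% Triton X-100. Reaction started with 2 uM Z-FR-AMC; AMC fluorescence increase over 60 s gives rate.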
# NS1 function inh: influenza NS1 inhibition. S. cerevisiae slowed by influenza A NS1, growth recovery by OD600. Potency, µM (titrated, usually from 46.1 µM), without a hit: top-dose activity, positive = more growth. 270,000 compounds, 0.4% hits. AID 2326; also: actives are rising curves; nearly all actives have a fitted effect of over 50% in size
#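 Growth recovery, yeast-based: influenza A NS1 expressed in S. cerevisiae causes slow growth, and suppressors are detected by OD600. The parent strain without NS1 is used as positive control.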
# Marburg entry inh: inhibitors of Marburg virus binding or cell entry | Marburg virus pseudotyped entry inhibition, cell reporter; control for the full effect not named in the record; about a third of the inactives were read at about 46 µM | Potency, µM (series often up to 37.8 µM), for the others: top-dose activity change, negative = inhibition, usual class: inhibitors | 300,000 compounds, 1.8% hits; active = well fitted inhibition curve with a large enough effect; inconclusive = small, poorly fitted or top-dose-only effect, or effect the other way; inactive = flat fitted curve, though single readings scatter; tested in HEK293 cells; about a fifth of its hits are not listed in these tables; also: % is scaled to controls: 0 for no effect and ±100 for the full control effect; luciferase read-out
# * = called active by the depositor; ? = inconclusive; · = not tested or not shown; & = joins results of further samples; [ ] = dose if it differs, or a comment. Unless noted, calls follow the shape of the dose curve; as a rule, active means well fitted rising curve with a large enough effect; inconclusive means small, poorly fitted or top-dose-only effect; inactive means no such curve, though single readings can be large or run the other way. Potency is read from the fitted curve at half-maximal effect.
mol | Marburg entry inh | RE007 growth inh | Cruzain Triton | Cruzain inh noDet | SARS PLP yeast | Lassa entry inh | 2A StopGo | NS1 function inh
Cc1ccc(/C=C2\C(=O)NC(=S)N(c3ccc(F)cc3)C2=O)s1 | 25%[46.1 µM] | 2% | · | · | 2% | 15% | ? | ·
CCCCN(Cc1cc2ccccc2[nH]c1=O)C(=O)c1ccccn1 | -13% | -7% | 1.1% | 2% | 2% | -5% | 3% | 4%
CCCc1cc(=O)[nH]c(SCC(=O)N2CCCC2=O)n1 | 17%[46.1 µM] | -21% | · | · | 3% | 11% | 12% | ·
CC(=N)C1=C(O)CC(c2ccccc2)CC1=O (stereo not given) | 0%[46.1 µM] | 7% | · | · | 3% | 12% | 2% | -61%
COc1ccc(CNC(=O)CCS(=O)(=O)c2ccc3c(c2)CCN3C(C)=O)cc1 | -1%[46.1 µM] | 5% | · | · | 7% | -18%[46.1 µM] | 7% | -2%
CC1(C)COC(Nc2ccc(Cl)cc2)=N1 | 15% | 2% | -18% | ? | 1% | ? | 16% | -3%
CCN(CC(=O)Nc1ccccc1OC)C(=O)COc1ccc2ccccc2c1 | -21% | -21% | -6.4% | ? | 5% | ? | -16% | -20%
OCC(O)C1OC(Nc2ccc(Br)cc2)C(O)C1O (stereo not given) | ? | 0% | · | · | 0% | 3% | 2% | 12%
CCCc1nnc(NC(=O)CSc2ncn[nH]2)s1 | 9% | -1% | 5.1% | 3% | 7% | 0% | -13% | -1%
Cc1ccc(S(=O)(=O)N2CCOC2CNC(=O)C(=O)NCCCc2ccccc2)cc1 (stereo not given) | -6% | -6% | · | · | -5% | -30% | ? | 1%
c1csc(-c2nn3c(-c4ccncc4)nnc3s2)c1 | -1% | · | 1.4% | -6% | 5% | · | · | ?
Cc1cc(C)cc(OCC(=O)OCC(=O)c2c(N)n(C)c(=O)n(C)c2=O)c1 | 25% | -12% | -5.2% | 15% | 11% | 6% | -10% | 12%
CC(=O)NC(CC(=O)Nc1nc(-c2ccc(N(C)S(C)(=O)=O)cc2)cs1)c1ccccc1 (stereo not given) | ? | -15% | · | · | 0% | ? | -24% | -11%
CC(C)(C)NC(=O)C1CC(=O)OC12CCCCC2 (stereo not given) | 11% | 6% | -1.8% | -5% | 3% | -8% | -11% | -1%
Cc1ccc(-n2cnc3cc(C(=O)NC4CCCCCC4)ccc32)cc1Cl | · | · | -0.6% | -1% | · | 4%[46.1 µM] | -15% | ·
COCCNC(=O)/C(C#N)=C/c1ccc(OC(=O)c2cccs2)c(OC)c1 | -8%[46.1 µM] | ? | · | · | -7% | -6% | 0% | ·
N=c1c(C(=O)NCC2CCCO2)cc2c(=O)n3ccccc3nc2n1Cc1ccc(Cl)cc1 (stereo not given) | · | -5% | · | · | 2% | · | -15% | 1%
Nc1cc(=O)[nH]c(SCC(=O)Nc2nnc(-c3ccccc3)s2)n1 | 14%[46.1 µM] | 8% | · | · | -2% | 19% | 16% | ·
Cc1ccccc1NC(=O)COC(=O)c1cc(C)n(C2CC2)c1C | 1% | -13% | · | · | -9% | 1% | 8% | ·
CCC(C)NC(=O)CSc1nc2cc3c(cc2c(=O)n1CCCCCC(=O)NCc1ccc(OC)cc1)OCO3 (stereo not given) | · | · | 0.6% | -11% | · | 15%[46.1 µM] | -3% | ·
Cc1c(OCC(=O)Nc2cccnc2)ccc2c3c(c(=O)oc12)CCC3 | · | -1% | · | · | 2% | · | -2% | 3%
Cc1ncoc1C(=O)Nc1ccccc1C(N)=O | 0% | -5% | 5.6% | -5% | -6% | 36%[14.3 µM] | 9% | -4%
O=[N+]([O-])c1ccc(NN=Cc2cccc([N+](=O)[O-])c2)cc1 | 2%[46.1 µM] | 1% | · | · | · | -4%[46.1 µM] | -8% | ·
Cc1ccc(C)c(N(C(=O)Cn2nnc3ccccc32)C(C(=O)NC(C)(C)C)c2ccsc2)c1 (stereo not given) | 2% | -20% | -0.6% | -7% | 2% | -2% | · | ?
CCCCC(=O)NC(=S)Nc1c(C)cc(Br)cc1C | 14% | 2% | -5.3% | -7% | 25% | ? | -1% | 12%
COc1ccc(Cl)cc1NC(=O)CCN1CCOCC1 | -17%[46.1 µM] | 1% | · | · | -3% | 5%[46.1 µM] | -3% | ?
COc1cccc(-c2nc(SCC(=O)NCC3CCCO3)c(-c3ccc(Cl)cc3)[nH]2)c1 (stereo not given) | ? | · | -9.2% | -2% | · | -21%[46.1 µM] | -23% | ·
COc1ccccc1OCCSc1nnc(CNC(=O)c2ccco2)n1C | 17%[46.1 µM] | 8% | · | · | 4% | 4%[46.1 µM] | 0% | 3%
Cc1cc(C)c(NC(=O)Cn2c(=O)c3cccn3c3ccccc32)c(C)c1 | · | -1% | -5.3% | ? | 1% | ? | ? | 2%
CC1(C)CC(=O)CC(=O)/C1=N\Nc1c(Cl)cc(Cl)cc1Cl | ? | -9% | -6.2% | -9% | 25% | 7% | 13% | -4%

# The closing 3 compounds of the section above come first, to join the parts.
mol | Marburg entry inh | RE007 growth inh | Cruzain Triton | Cruzain inh noDet | SARS PLP yeast | Lassa entry inh | 2A StopGo | NS1 function inh
COc1ccccc1OCCSc1nnc(CNC(=O)c2ccco2)n1C | 17%[46.1 µM] | 8% | · | · | 4% | 4%[46.1 µM] | 0% | 3%
Cc1cc(C)c(NC(=O)Cn2c(=O)c3cccn3c3ccccc32)c(C)c1 | · | -1% | -5.3% | ? | 1% | ? | ? | 2%
CC1(C)CC(=O)CC(=O)/C1=N\Nc1c(Cl)cc(Cl)cc1Cl | ? | -9% | -6.2% | -9% | 25% | 7% | 13% | -4%
c1ccc2cc(-c3cc4ccccn4c3)ccc2c1 | ? | 8% | 0.9% | ? | -1% | -21% | · | -12%
CCCNC(=O)Nc1cc(S(=O)(=O)CC)ccc1O | · | -15% | · | · | -5% | · | 4% | 2%
CCCCn1c(N)c(N(CCOC)C(=O)COC(=O)COc2ccc(CC)cc2)c(=O)[nH]c1=O | 0%[46.1 µM] | 21% | · | · | 5% | 0% | -12% | ·
O=C(COC(=O)c1nc(Cl)ccc1Cl)NCc1cccs1 | 17%[46.1 µM] | 29% | · | · | 2% | 15% | -13% | ·
Cc1cc(CNC(=O)CC2C(=O)NCCN2Cc2ccccc2C(F)(F)F)nn1C (stereo not given) | · | 2% | · | · | 1% | · | -15% | 0%
CCOC(=O)C1CCN(Cc2cnc(Oc3ccc(OC)cc3)s2)CC1 | -11% | 3% | 6.0% | -4% | 1% | 1.5µM* | -11% | -3%
COc1ccccc1-c1cc(C(F)(F)F)nc(S(C)(=O)=O)n1 | ? | 2% | -4.7% | 4% | -23% | ? | 32µM* | -146%
CCCCSc1nc(N)nc2c1ncn2C1OC(CO)C(O)C1O (stereo not given) | 8% | 11% | · | · | · | 24% | 31%[activator] | ·
O=C(Cn1cccc1)N1CCc2ccccc21 | 20% | -4% | 0.9% | -3% | 9% | 4% | 23% | 7%
Cc1oc(-c2cccs2)nc1CN1CCN(C(C)C)C(CCO)C1 (stereo not given) | 10%[46.1 µM] | 9% | · | · | -1% | 10%[46.1 µM] | -4% | -2%
CCC(C)(C)NC(=O)CN(Cc1cccs1)C(=O)CNS(=O)(=O)c1ccc(C)cc1 | 4% | 7% | 0.6% | -1% | 1% | -18% | 6% | 6%
CCOc1ccc(S(=O)(=O)NCc2ccc3c(c2)CCN3C(=O)c2ccc(C)cc2)cc1 | · | · | -1.1% | ? | · | -27%[46.1 µM] | -22% | ·
O=c1c2oc3ccccc3c2n(Cc2ccc(Cl)cc2)c(=O)n1Cc1ccccc1 | · | · | -1.3% | -8% | · | -4%[46.1 µM] | -25% | ·
Cc1cc(C)c(S(C)(=O)=O)c(N(C)NC(=O)c2c(F)cccc2F)n1 | 2%[46.1 µM] | -9% | · | · | -1% | -29%[46.1 µM] | 1% | ·
O=C(CNC(=O)c1ccco1)Nc1ccc(Br)cc1 | · | -8% | · | · | 1% | · | 1% | 1%
CC1(C)CC2CC(C)(CN2C(=O)c2ccc([N+](=O)[O-])cc2[N+](=O)[O-])C1 (stereo not given) | · | 3% | · | · | -2% | · | 1% | 1%
O=C(COC(=O)CNC(=O)c1ccc(Cl)c([N+](=O)[O-])c1)NNC(=O)c1cccs1 | 1% | -6% | · | · | 4% | ? | -7% | ·
CCOC(=O)C1CCN(c2c(N3CCCC(C(=O)OCC)C3)c(=O)c2=O)CC1 (stereo not given) | -5%&-5% | 24% | -5.0% | 1% | 9% | -14% | 0% | -21%
Cc1ccc(CN2CCc3nc(N4CCN(C)CC4)ncc3C2)s1 | · | · | -1.0% | -2% | · | 2%[46.1 µM] | -11% | ·
COc1cc(/C=N/OCC(=O)NC2CCCCC2C)ccc1OCc1ccc(Cl)cc1 (stereo not given) | ? | -4% | -3.8% | 4% | -14% | ? | 7% | 14%
CCC1(C)Cc2c(sc3[nH]c(=O)[nH]c(=O)c23)CS1 (stereo not given) | 16% | -6% | -5.4% | -2% | 2% | -18% | -10% | 22%
Cc1cc2c(c(=O)o1)C(CC(C)C)C(C#N)=C(N)O2 (stereo not given) | 5% | 25% | -1.0% | 10% | 10% | 0% | -8% | 11%
CC(CCc1ccccc1)NCC#N (stereo not given) | · | 0% | · | · | -1% | · | -8% | 0%
Cc1cc(C)cc(-n2c(O)c(C=NC3CCS(=O)(=O)C3)c3ccccc3c2=O)c1 (stereo not given) | ? | 10% | 2.8% | 25% | 5% | 6% | 9% | 1%
Nc1c(N(CCO)C(=O)C2CCCCC2)c(=O)[nH]c(=O)n1Cc1ccccc1 | -12%[46.1 µM] | -14% | · | · | 0% | 1%[46.1 µM] | -12% | -3%
c1ccc(N2CCN(c3nc(-c4ccccn4)nc4ccccc34)CC2)cc1 | ? | ? | 2.8% | 6% | -17% | ? | ? | -66%
O=C1c2ccccc2C(=O)N1Cc1nc2ccccc2c(=O)n1CCCN1CCOCC1 | 2% | -2% | 3.5% | 1% | -6% | 5% | 6% | 5%

# From PubChem BioAssay
